FEN1 inhibitor = blocks human flap endonuclease 1. P39748. Recombinant FEN1 flap cleavage, fluorescence, 15 min. Potency, µM (top dose mostly 114 µM), without a hit: at the top dose activity change, negative = inhibition, actives largely listed as inhibitors. hit rate 0.35% among 390,000; note: nearly all actives have a fitted effect of over 65% in size
Target sequence (P39748 whole entry, looked up): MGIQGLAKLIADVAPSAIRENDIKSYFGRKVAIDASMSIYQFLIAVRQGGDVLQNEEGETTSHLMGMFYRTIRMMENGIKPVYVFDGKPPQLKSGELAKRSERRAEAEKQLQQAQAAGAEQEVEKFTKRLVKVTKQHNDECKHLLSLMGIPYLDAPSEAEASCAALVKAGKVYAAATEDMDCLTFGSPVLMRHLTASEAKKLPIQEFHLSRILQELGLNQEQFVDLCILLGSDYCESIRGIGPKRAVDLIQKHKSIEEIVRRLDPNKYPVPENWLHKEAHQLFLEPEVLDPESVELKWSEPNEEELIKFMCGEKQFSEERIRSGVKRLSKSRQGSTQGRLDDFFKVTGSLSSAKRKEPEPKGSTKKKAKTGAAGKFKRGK
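Recombinant FEN1 (10 nM) was preincubated with pin-transferred compounds for 15 min at room temperature, then flap DNA substrate (50 nM final) was added. Plates were read at 0 and 15 min, and normalized concentration–response data were fitted to a four-parameter Hill equation.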
N370S GC mod = inhibits or activates N370S mutant glucocerebrosidase; P04062; N370S GC spleen homogenate, 4MU-glucoside fluorescence; Potency, µM (top dose mostly 59.4 µM), for the others: top-dose activity change, negative = inhibition, actives largely listed as inhibitors; hit rate 0.092% among 330,000; AID 2101;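 note: 0% = full enzyme activity and -100% = no enzyme basal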
* = called active by the depositor; ? = inconclusive; . = no result given; & = joins results of further samples; [ ] = dose if it differs, or a comment. Calls come from the whole dose curve; as a rule, active = well fitted curve in the direction sought with a large enough effect; inconclusive = small, poorly fitted or top-dose-only effect, or another doubt; inactive = no such curve, though single readings can be large; an effect the other way counts as inactive or inconclusive. Unless noted, % is set by controls: 0 for no effect and ±100 for the full control effect; potency is the fitted concentration of half-maximal effect. A portion of the library; most or all hits stand in other tables.

Structure,FEN1 inhibitor,N370S GC mod
CCC(C)[C@H](NC(=O)NC(C)C)C(=O)O (some centres not stated),-1%,-13%
Cc1ccccc1C([O-])=Nc1ccc[n+](-c2nc3ccccc3nc2NS(=O)(=O)c2ccccc2)c1,-13%,16%
CC(C)(C)OC(=O)N1CC(O)CC1C(=O)OCC(=O)c1ccc(-c2ccccc2)cc1 (configuration not stated),11%,3%
COc1ccc(CCN2CC(C(=O)N3CCSCC3)CCC2=O)cc1 (configuration not stated),-2%,-8%
CCOC(=O)CSc1nc2cc(OC)c(OC)cc2c2nc(-c3ccccc3)nn12,-4%,.
Nc1ncn([C@@H]2O[C@H](CO)[C@@H](O)[C@H]2O)c(=O)n1,17%&-2%,-4%&1%&12%
C=CCc1ccccc1OCC(O)CN1CCN(c2ccccc2OC)CC1 (configuration not stated),4%,0%[2.35 µM]
COc1ccc(Cn2c(=O)sc3ccccc32)cc1OC,-24%,1%

(further entries)
Structure,FEN1 inhibitor,N370S GC mod
Cc1ccc(-c2cc(C(=O)Nc3ccc4c(c3)OCCO4)c3ccccc3n2)cc1,4%,13%
CC1CCN(S(=O)(=O)c2ccc(NC(=O)c3ccncc3)cc2)CC1,1%,-4%
COc1cc(OC)c(OC)cc1CN1CCN(C(=O)c2cccc3ccccc23)CC1,-8%,-6%
CCOC(=O)c1cnc2c(ccc3ccccc32)c1Nc1ccccc1OC,8%,.
c1coc(-c2nnc3n2C2(CCCC2)Cc2ccccc2-3)c1,1%,9%
CC1=CC(C)C(/C=N/N=C(N)N)C(C)C1 (configuration not stated),-2%,-26%
COc1ccc(-c2cn3c(n2)sc2cc(C(=O)NCCc4ccccc4)ccc23)cc1,-4%,.
O=C(/C=C/c1ccccc1[N+](=O)[O-])Nc1ccccc1,1%,5%

Later entries:
Structure,FEN1 inhibitor,N370S GC mod
CCCC(=O)NCCCc1nc2ccccc2n1CCC,-7%,7%
Cc1ccc2oc(=O)c3cnn(CC(=O)N4CCCc5ccccc54)c3c2c1,14%,4%
O=C(C(Cc1ccccc1)n1cccc1)N1CCN(c2ncccn2)CC1 (configuration not stated),-12%,22%
N#CC1=C(N2CCOCC2)/C(=C\c2ccccc2)CC1,-6%,1%
CCN(CC)CCCNC(=O)C1c2ccccc2C(=O)N1Cc1ccc(C)cc1 (configuration not stated),-4%,6%
CSc1ccc(CCNC(=O)CCc2c(C)nc3c(c(C)nn3-c3ccccc3)c2C)cc1,20%,.
CCCCNC(=O)CN(c1cccc(Br)c1)S(C)(=O)=O,19%,-8%
COc1cccc(NC(=O)COC(=O)c2c(F)cccc2Cl)c1,-7%,28%

(next part)
Structure,FEN1 inhibitor,N370S GC mod
COc1cccc(NC(=O)N2CCC(NC(=O)C3CCCCC3)CC2)c1,-18%,-4%
Fc1ccc(-c2cc(C(F)(F)C(F)F)[nH]n2)cc1,0%,4%
C[C@@H]1CN([C@@H](C)CO)C(=O)c2cccc(NC(=O)Nc3ccccc3)c2O[C@H]1CN(C)C(=O)Nc1cccc2ccccc12,-1%,.
Cc1nc2sc(C(c3ccc(Cl)cc3)N3CC(C)OC(C)C3)c(O)n2n1 (configuration not stated),2%,0%
O=C(/C=C/c1cccs1)Nc1nncs1,-2%,-2%
COc1ccc(NC(=O)C(C)N(c2ccc(C)cc2)S(C)(=O)=O)cc1 (configuration not stated),-15%,4%
CCCN1C(=O)/C(=C\c2nc3ccccc3c(=O)[nH]2)c2ccccc21,0%,?
CC(=O)Nc1cccc(N2C(=O)CC(Cc3ccccc3)C2=O)c1 (configuration not stated),8%,-15%

Single entries from the results shown:
`O=C(/C=C/c1cccs1)Nc1nncs1` – N370S GC mod: -2%
`CCCN1C(=O)/C(=C\c2nc3ccccc3c(=O)[nH]2)c2ccccc21` – FEN1 inhibitor: 0%
`Cc1nc2sc(C(c3ccc(Cl)cc3)N3CC(C)OC(C)C3)c(O)n2n1` (configuration not stated) – N370S GC mod: 0%
`COc1ccc(NC(=O)C(C)N(c2ccc(C)cc2)S(C)(=O)=O)cc1` (configuration not stated) – FEN1 inhibitor: -15%

Later entries
Structure,FEN1 inhibitor,N370S GC mod
Cc1ccoc1C(=O)NCCNC(=O)c1occc1C,14%,2%
COc1ccc(NC(=O)CSc2nc(C)cc(C)c2C(=O)Nc2cccc(C)c2)cc1,4%,.
O=C(COC(=O)C1CCN(S(=O)(=O)c2cccc3cccnc23)CC1)c1ccc(F)cc1,-4%,.
COc1ccc(C(=O)NCCOc2ccccc2)cc1S(=O)(=O)N1CCOCC1,-3%,.
Cc1ccc2c(c1)cc1c(=O)n(CC(=O)NCCCc3ccccc3)nc(C)n12,-6%,-5%
COc1ccc2c(=O)c(C(=O)NCCc3ccc(OC)c(OC)c3)c[nH]c2c1,0%,-6%
CCOc1ccccc1-c1nc(C(N)=O)c2[nH]c(=O)n(-c3ccccc3)c2n1,11%,9%
CC1(C)CC(c2nc(-c3ccccc3)cs2)CCS1 (configuration not stated),0%,7%

Following part:
Structure,FEN1 inhibitor,N370S GC mod
COc1ccc(S(=O)(=O)N2CCOC2CNC(=O)C(=O)NCc2cccnc2)cc1OC (configuration not stated),-1%,0%
COC(=O)N1CCN(c2ccc(OC)cc2)CC1,-8%,2%
CCOC(=O)N1CCC(N2CCN(S(=O)(=O)c3ccc4ccccc4c3)CC2)CC1,-3%,-2%
COc1ccccc1N1CCN(CCCCOc2ccc(F)cc2)CC1,6%,-14%
COc1ccc(NC(=O)Cc2c(F)c(F)c(F)c(F)c2F)cc1OC,0%,-1%
O=C(Nc1ccc(Cl)cc1)N1CCC(c2ccccc2)C1 (configuration not stated),-21%&-18%,-15%
CCCCC(=O)N1C/C=C\C(c2ccc(OC)cc2)N(Cc2ccc(F)cc2)C(=O)[C@H]1Cc1ccccc1 (some centres not stated),0%,-1%
Cc1cccc(N2CCN(S(=O)(=O)c3c(C)nc4scc(C)n4c3=O)CC2C)c1 (configuration not stated),-6%&-37%,-4%

Further entries follow.
Structure,FEN1 inhibitor,N370S GC mod
O=C(Nc1ccncc1)c1cc(F)cc(F)c1,-1%,-7%
O=C(Cc1ccccc1)Nc1ccc2oc(-c3ccncc3)nc2c1,-1%,10%
CCOC(=O)c1ccc(NC(=S)NN2CCOCC2)cc1,6%,2%
Fc1ccc(C(CNC(=S)NC2CCCCC2)N2CCOCC2)cc1 (configuration not stated),-4%,-2%
CC(C(=O)Nc1cc([N+](=O)[O-])ccc1Cl)N1CCN(c2ccc(O)cc2)CC1 (configuration not stated),-13%,-12%
O=C(CCNS(=O)(=O)c1ccccc1C(F)(F)F)NCCCSc1ccccc1,6%,-13%
COc1cc(C(=O)O)ccc1OC(C)=O,-6%,4%
Oc1ccc(C[C@H]2CNCCN2CCCCC2CCCCC2)cc1,7%,?

(continued)
Structure,FEN1 inhibitor,N370S GC mod
N#Cc1ccc(C(=O)Nc2nc(SCc3ccc(Cl)cc3)n[nH]2)cc1,6%,18%
Cc1ccccc1NC(=O)CCn1cnc2onc(-c3ccc(F)cc3)c2c1=O,14%,.
COc1ccc(-c2noc(CCC(=O)N3CCN(c4cccc(C)c4C)CC3)n2)cc1,-25%,.
O=C(C1CCCO1)N1CCN(c2ccccn2)CC1 (configuration not stated),20%,-2%
COc1ccc(Oc2nc3c(c(=O)n(C)c(=O)n3C)n2Cc2cccc(OC)c2)cc1,0%,5%
CC1(C)CNc2cc([N+](=O)[O-])ccc2S1,-14%,17%
COc1ccc(C(=O)N/C(=C/c2cccs2)C(=O)NCCCn2ccnc2)cc1OC,6%,-2%
CCN(CC)CCC(c1ccc(N(C)C)cc1)c1c(OC)cc(OC)c2c(-c3ccccc3)cc(=O)oc12 (configuration not stated),-8%&-16%,-17%&-3%

More entries:
Structure,FEN1 inhibitor,N370S GC mod
COc1ccc(OC)c(NC(=O)c2cccnc2Sc2cc(C)ccc2C)c1,-13%,11%
Cc1cccc(N(Cc2ccccc2)C(=O)c2ccccc2F)c1,9%,-7%
COc1ccc(C(=O)COC(=O)c2cc(=O)[nH]c3ccccc23)c(OC)c1,-4%,-12%
O=C(Cn1c(=O)oc2cc(S(=O)(=O)N3CCc4ccccc43)ccc21)NC1CCCC1,-11%,-2%
CCCn1nnnc1NC(=O)c1ccc(C)cc1Cl,16%,9%
Cc1ccc(C(=O)CN2C(=O)NC3(CCc4ccccc43)C2=O)c(C)c1 (configuration not stated),-13%,0%
Cc1ccc(OCc2cc(C(=O)N(C)CC3CCOCC3)no2)cc1C,-9%,-23%
CC(C(=O)N1CCOCCOCCOCCOCCOCC1)N1C(=O)c2ccccc2C1=O (configuration not stated),-1%,-12%

Carrying on:
Structure,FEN1 inhibitor,N370S GC mod
Cc1ccc(NC(=S)N(CCCN2CCCC2)Cc2cccn2Cc2ccc(Cl)cc2)cc1,10%,9%
CC1Cc2ccccc2N1C(=O)c1cc2cccnc2n(C)c1=O (configuration not stated),8%,0%
Cc1cc(C)cc(NC(=O)NCC2CCN(Cc3cc(C)ccc3C)CC2)c1,10%&-5%,-5%
C=CCN1CC2CC3(COc4cc(C)cc(C)c4)C=CC2(O3)C1=O (configuration not stated),10%,12%
CCOc1ccc(OCC)c(NC(=O)CC(C)n2nc(C)cc2C)c1 (configuration not stated),16%,.
O=S1(=O)C=C(Oc2ccc(F)cc2)c2ccccc21,-11%,-4%
O=C(CC1Sc2ncnn2C1=O)Nc1ccc(Cl)cc1 (configuration not stated),8%,-5%
O=C(COC(=O)c1cc(=O)c2ccccc2o1)Nc1ccc2ccccc2c1,4%,3%

The list goes on, starting with the last four of the part before.
Structure,FEN1 inhibitor,N370S GC mod
CCOc1ccc(OCC)c(NC(=O)CC(C)n2nc(C)cc2C)c1 (configuration not stated),16%,.
O=S1(=O)C=C(Oc2ccc(F)cc2)c2ccccc21,-11%,-4%
O=C(CC1Sc2ncnn2C1=O)Nc1ccc(Cl)cc1 (configuration not stated),8%,-5%
O=C(COC(=O)c1cc(=O)c2ccccc2o1)Nc1ccc2ccccc2c1,4%,3%
COc1cc2c(cc1OC)-c1cc(=Nc3c(C)cc(C)cc3C)n(C)c(=O)n1CC2,-11%,-4%&-16%&-17%
COc1ccc(CCNC(=O)c2c(C)nn(-c3ccccc3)c2Cl)cc1OC,-4%,-2%
CSc1ccccc1NC(=O)Cn1ccsc1=N,0%,-4%
Fc1ccc(Oc2nnnn2-c2ccccc2)cc1,-1%,0%
CCOC(=O)c1sc(NC(=O)CCN2CCOCC2)c(C(=O)OCC)c1C,-13%,8%
COCCN(C(=S)Nc1cccc(C)c1C)C(C)c1ccco1 (configuration not stated),-1%,7%
CC(C)(C)C(=O)Cn1c(=O)n(-c2ccc(F)cc2F)c(=O)c2sccc21,-10%,-17%
O=C(c1ccccc1)c1nnc(-c2ccncc2)o1,-3%,-1%

Other results.
Structure,FEN1 inhibitor,N370S GC mod
CC(C)(C)c1ccc(C(=O)NCCC(=O)Nc2cc(Cl)ccc2N2CCOCC2)cc1,-30%,.
Cc1cc(Cl)ccc1OCC(=O)Nc1cccc(S(=O)(=O)N2CCCC2)c1,4%,.
O=C(CCl)Nc1ccc(Oc2cnc3ccccc3n2)cc1,-3%,-6%
Cc1cccc(NC(=O)CSc2nc3c(sc4ccccc43)c(=O)n2CCCC(=O)NC2CCCC2)c1,-7%,.
CC(C)N(C(=O)Cn1cc(SCC(=O)NCC2CCCO2)c2ccccc21)C(C)C (configuration not stated),2%,-25%
CCN(c1ccccc1)S(=O)(=O)c1cc(C(=O)Oc2ccc3c(C)cc(=O)oc3c2)ccc1C,7%,?
COc1ccc2nc3oc(C(=O)N4CCCCC4)cc3cc2c1,-9%,10%
Cc1noc(C)c1COC(=O)c1cccc(N(C)C)c1,3%,2%

Later entries.
Structure,FEN1 inhibitor,N370S GC mod
COc1ccccc1/C=N/NC(=O)c1c(-c2ccccc2)noc1C,-4%,-1%
Cc1ccc(C)c(Cn2c(=O)n(CC3CCC(C(=O)N4CCOCC4)CC3)c(=O)c3sccc32)c1 (configuration not stated),2%,.
O=C(Nc1ccc(S(=O)(=O)N2CCCCCC2)cc1)c1c(F)cccc1F,-10%,-13%
CCN1CCN(c2ccc(NC(=O)c3cccc(S(=O)(=O)N4CCCC4)c3)cc2)CC1,1%,.
COc1ccc(C(=O)n2nc(-c3ccccc3)nc2SC)cc1,2%,3%
Cc1ccc(C)c2[nH]c(=O)c(CN(CC3CCCO3)C(=S)NCc3ccco3)cc12 (configuration not stated),-15%,17%
COc1ccc2c(c1)C=CC1(O2)N(CCO)c2ccccc2C1(C)C (configuration not stated),7%,-15%
Cc1c(-c2nnc(SCC(=O)O)n2-c2ccccc2Br)nnn1-c1ccccc1,-8%,-10%

Remaining list, next part.
Structure,FEN1 inhibitor,N370S GC mod
COC(=O)c1ccc(NC(=O)C[n+]2ccccc2C)cc1,-2%,-1%
Cc1ccc(C(=O)NCCNC(=O)c2ccccc2)cc1,3%,11%
CCC(=O)Nc1ccc(Nc2ccccc2)cc1,-14%,2%
Cc1cc(C)cc(NS(=O)(=O)c2ccc3c(c2)NC(=O)C(C)S3)c1 (configuration not stated),-3%,.
CCCS(=O)(=O)c1cn2cccc(N)c2c1S(=O)(=O)CCC,2%,-4%
Cc1nc2ccc(NC(=O)CSc3nnc(C)s3)cc2[nH]1,13%,-3%

Ordered by molecular weight (descending): 4 of the compounds above.
Structure,FEN1 inhibitor,N370S GC mod
O=C(Cn1c(=O)oc2cc(S(=O)(=O)N3CCc4ccccc43)ccc21)NC1CCCC1,-11%,-2%
Cc1cc(C)cc(NC(=O)NCC2CCN(Cc3cc(C)ccc3C)CC2)c1,10%&-5%,-5%
O=C(C1CCCO1)N1CCN(c2ccccn2)CC1 (configuration not stated),20%,-2%
Fc1ccc(Oc2nnnn2-c2ccccc2)cc1,-1%,0%
